Bioassay records deposited in PubChem by several laboratories.
B2AR ag = beta2AR agonists driving receptor internalization, primary screen, cell-based, FAP fluorogen, flow cytometry | 340,000 tested, 0.43% active | Am2.2-beta2AR cells; reference of the scale not given here | response, % (test concentration not listed);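 active = response above a set limit, near 3 SD of response in nonfluorescent compounds, cut at about 42% in these data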;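 note: stock transfer was 100 nL into about 11 µL; a reference agonist was the positive control; negative values mostly stem from fluorescent compounds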
Ecoli growth = E. coli growth inhibition, primary screen, OD600. Escherichia coli growth, 23 h; stronger effect = lower value. OD600 absorbance (concentration not given with the values). 330,000 tested, 0.21% active;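 active = OD600 absorbance below the run mean of sample wells minus 3.6 SD, in any replicate, cut at about 0.56 in these data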;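 note: stock transfer was 300 nL into about 60 µL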
rRNA inh HTS = reduced GFP signal of wild-type E. coli, primary screen, bacterial rRNA inhibitor project, GFP/RFP fluorescence, OD600, single point; E. coli WT GFP vs humanized-ribosome RFP mutants, 24 h; stronger effect = lower value; DMSO median 0, no signal -100; 350,000 tested, 1.6% active; GFP signal change (wild-type ribosome), % (test concentration not listed);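 active = significant combined selectivity score with lowered wild-type GFP, culture density cut under 30%, mutant RFP and density less affected; inactive = any of these conditions unmet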; note: one replicate is shown; some compounds called inactive have numbers as strong as hits
UCH37 inh = inhibitors of human UCH37 deubiquitinase, primary screen, biochemical, Ub-AMC cleavage, fluorescence; Ubiquitin carboxyl-terminal hydrolase isozyme L5 (Homo sapiens), Q9Y5K5; purified proteasome/UCH37; inhibition, % (no concentration beside the values); 330,000 tested, 0.33% active; AID 588478, 2011;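 active = mean of two replicates above 20%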;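 note: 0% = compound-free wells with enzyme and 100% = wells lacking proteasome; stock transfer was 100 nL into about 20 µL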
Target sequence (Q9Y5K5 whole entry, looked up): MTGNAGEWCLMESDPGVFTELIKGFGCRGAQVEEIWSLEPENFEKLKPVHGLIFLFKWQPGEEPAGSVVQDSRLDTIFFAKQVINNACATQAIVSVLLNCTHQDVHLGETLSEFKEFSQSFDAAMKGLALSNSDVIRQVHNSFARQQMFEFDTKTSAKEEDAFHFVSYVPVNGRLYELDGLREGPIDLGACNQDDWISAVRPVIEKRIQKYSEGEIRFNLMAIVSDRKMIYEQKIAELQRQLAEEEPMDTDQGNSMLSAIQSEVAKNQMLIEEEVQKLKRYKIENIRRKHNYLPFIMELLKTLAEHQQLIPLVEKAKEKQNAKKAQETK
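System: Proteasome-associated human UCH37 deubiquitinase; Input: 0.15 nM proteasome in added enzyme buffer; Also added: Ub-AMC substrate from 1 µM stock; Incubation: 30 min compound-proteasome preincubation then 25 min substrate reaction, room temperature; Detection: fluorescence, ex 355 nm, em 460 nm; Read-out: % inhibition of Ub-AMC cleavage fluorescence; Benchmarks: no-proteasome and no-compound wells.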
HNF4A DNA FP = change in binding of human HNF4A to DNA, primary screen, biochemical, fluorescence polarization, FITC-DNA. 1 h. activity change, % at 10 µM. 360,000 tested, 0.3% active; in the data active = activity change above about 30%, passing the limit was not always enough;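 note: controls were the assay level and a saturating level of protein; the project sought stronger binding though the title names inhibitors; some compounds called inactive have numbers as strong as hits; positive values seem to mean higher polarization but the record does not say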
Target sequence (P41235 whole entry, looked up): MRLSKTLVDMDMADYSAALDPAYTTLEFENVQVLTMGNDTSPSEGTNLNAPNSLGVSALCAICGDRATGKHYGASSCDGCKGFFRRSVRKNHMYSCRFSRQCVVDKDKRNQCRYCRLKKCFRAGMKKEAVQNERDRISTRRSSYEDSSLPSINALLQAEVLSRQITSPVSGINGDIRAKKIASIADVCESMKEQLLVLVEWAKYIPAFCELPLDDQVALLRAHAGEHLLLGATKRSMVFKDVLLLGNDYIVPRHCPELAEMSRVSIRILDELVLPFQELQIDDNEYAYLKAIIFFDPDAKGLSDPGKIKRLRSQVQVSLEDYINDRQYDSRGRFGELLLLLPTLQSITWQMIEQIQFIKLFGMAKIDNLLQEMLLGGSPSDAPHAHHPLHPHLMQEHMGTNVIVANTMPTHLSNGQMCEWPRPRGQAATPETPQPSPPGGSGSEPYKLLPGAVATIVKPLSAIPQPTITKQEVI
ALR H2O2 inh = inhibitors of human ALR sulfhydryl oxidase, primary screen, biochemical, H2O2 detection, HRP-luminol luminescence, single point. purified ALR, DTT oxidation. inhibition, % (no concentration beside the values). 290,000 tested, 3.8% active. AID 485317, 2010. FAD-linked sulfhydryl oxidase ALR (Homo sapiens), P55789;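 active = mean and each replicate at 75% or more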;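 note: stock transfer was 7.5 nL into about 7.5 µL; 0% = neutral wells and 100% = wells with inactivated enzyme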
Target sequence (P55789 whole entry, looked up): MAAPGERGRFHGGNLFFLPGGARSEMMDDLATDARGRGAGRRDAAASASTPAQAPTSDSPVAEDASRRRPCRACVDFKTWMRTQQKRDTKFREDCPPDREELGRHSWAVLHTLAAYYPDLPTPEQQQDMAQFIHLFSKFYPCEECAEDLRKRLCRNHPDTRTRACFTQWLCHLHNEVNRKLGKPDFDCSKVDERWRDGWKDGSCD
FGF22 binding = binders of human FGF22 protein, primary screen, FGF22 synaptogenesis inhibitor project, biophysical, thermal shift, single point. Fibroblast growth factor 22 (Homo sapiens), Q9HCT0. recombinant FGF22 thermal shift, SYPRO orange fluorescence; percent of sucrose octasulfate shift, DMSO zero. AID 651658, 2012. calls only at 9.99 µM. 340,000 tested, 1.5% active;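 active = melting point raised past a set limit in the mean and every replicate; three in four hits are not shown here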
rRNA inh HTS OD600 = also measured in rRNA inh HTS; calls as there; OD600 change, %; measured here: OD600 growth;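 optical density of the mix in the first replicate; 0 = DMSO median and -100 = no signal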
rRNA inh HTS RFP = further read-out of rRNA inh HTS, marked with its call; RFP signal change, %; measured here: RFP humanized mutant strains;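 first replicate; 0 = DMSO median and -100 = no signal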
* hit, by the source's call; i = inactive; nt = no result given; & = joins results of further samples. Only part of the results is shown. The share of hits here may be higher or lower than overall.

1) CCS(=O)(=O)c1nnnn1-c1ccccc1S(C)(=O)=O
2) COC(=O)CN1C(=O)C(C)(C)Oc2ccc(C(=O)Nc3cccc(OC)c3)cc21
3) CCn1cnc2c1c(=O)n(CC(=O)O)c(=O)n2Cc1ccccc1
4) CCCCN(C(=O)COC(=O)c1ccccc1)c1c(N)n(CCC)c(=O)[nH]c1=O
5) Cc1cccc(C)c1OCC(O)CN (stereo unspecified)
6) CC(C)(C)n1ncc2c(=O)n(CC(=O)NCc3ccco3)cnc21
7) O=C(Cc1ccccc1)Nc1ncccn1
8) Clc1ccc(Oc2ncnc3oc(-c4ccccc4)cc23)cc1
9) CCOc1cc(CNCCSc2nnnn2C)cc(Br)c1OCc1ccccc1
10) O=C(CCC1CCCN(c2ncccn2)C1)NCc1ccccc1F (stereo unspecified)

screen / no.	1	2	3	4	5	6	7	8	9	10
HNF4A DNA FP	-0.6	-0.6	0.2	-4.2	-0.6	-1.7	3.0	-1.5	-2.5	2.7
ALR H2O2 inh	16.8	-4.0	-5.2	-4.2	-4.2	-2.2	nt	1.1	-20.8	2.2
Ecoli growth	0.671	0.677	0.678	0.63	0.747	0.725	0.7	0.814	0.665	0.687
FGF22 binding	i	i	i	i	nt	nt	i	nt	nt	i
rRNA inh HTS	15.7	-3.7	9.7	19.2	nt	nt	3.1	nt	nt	2.8
rRNA inh HTS OD600	3.6	-2.8	8.6	15.4	nt	nt	4.0	nt	nt	-2.2
UCH37 inh	6.2	-0.1	1.1	0.1	2.4	4.4	3.0	-4.7	-0.6	-2.2
B2AR ag	-1.4	4.1	1.5	0.3	7.8	0.4	-3.3	14.8	17.5	-4.0
rRNA inh HTS RFP	-3.0	1.9	-1.2	3.9	nt	nt	-6.5	nt	nt	0.0

11) CC1(C)CC(=O)/C(=C(\O)c2ccccc2)C(=NCCO)C1
12) Cc1ccc(Nc2nc(NCCO)nc(N3CCCC3)n2)cc1
13) Cn1c(CNc2nc(-c3ccccc3)cs2)nnc1SCC(=O)c1ccccc1
14) Cc1ccc(-c2nc(CSCC(=O)Nc3cc(C)on3)c(C)o2)cc1
15) Cc1cc2nc(C)n(CCCNC(=O)Nc3ccc(F)cc3)c2cc1C
16) CCOC(=O)c1ccc(NC(=S)NCc2ccccc2)cc1
17) C=C(C)c1cccc(C(C)(C)NC(=O)Nc2ccc(C(C)=O)cc2)c1
18) O=C(CSc1ccccc1)NCCc1ccc(F)cc1
19) Cn1cc(CN2CCCC(C(=O)c3ccc(-c4ccccc4)c(F)c3)C2)cn1 (stereo unspecified)
20) O=C(Cn1cc(C(=O)C(F)(F)F)c2ccccc21)NCc1ccco1

screen / no.	11	12	13	14	15	16	17	18	19	20
HNF4A DNA FP	0.8	4.3	-0.3	1.4	-0.7	3.1	4.2	-2.5	2.8	3.4
ALR H2O2 inh	-4.0	nt	5.9	nt	-9.4	-1.7	-2.3	nt	-4.7	0.8
Ecoli growth	0.674	0.659	0.769	0.717	0.668	0.638	0.699	0.657	0.664	0.67
FGF22 binding	nt	i	nt	i	nt	i	nt	i	i	i
rRNA inh HTS	nt	-7.6	nt	3.5	nt	-40.6	nt	10.6	-13.7	5.4
rRNA inh HTS OD600	nt	-4.3	nt	2.9	nt	-69.3	nt	-2.4	-17.6	2.3
UCH37 inh	1.3	0.8	4.6	3.3	3.3	0.7	1.5	3.7	3.5	3.1
B2AR ag	-0.9	-14.6	-12.0	1.8	-8.4	-2.5	4.0	0.9	5.0	1.3
rRNA inh HTS RFP	nt	-8.1	nt	-0.1	nt	-0.7	nt	0.6	6.3	-2.0

21) CCCCCn1c(SCCc2ccccc2)nc2c1c(=O)[nH]c(=O)n2C
22) Cc1ccc(C(=O)O/N=C(\c2ccccc2)c2ccncc2)cc1
23) CCN(c1cccc(C)c1)S(=O)(=O)c1ccc2c(c1)CCN2C(C)=O
24) CC(C)(C)C(=O)CSc1nnc(Nc2ccccc2)s1
25) CC(C)(C)c1ccc(OCC(O)CN2CCN(C(=O)c3ccccc3)CC2)cc1 (stereo unspecified)
26) COCCCNc1nc2c(c(=O)n(Cc3ccc(OC)cc3)c(=O)n2C)n1C
27) C[C@H](NC(=O)[C@@H]1CCCN1C(=O)OC(C)(C)C)c1ccccc1
28) Cc1cccc(OCC(=O)N(Cc2cccs2)C2CCS(=O)(=O)C2)c1 (stereo unspecified)
29) CCn1c(=S)[nH]c2cc(C(=O)O)ccc21
30) Cc1ccccc1NC(=O)CCC(=O)N/N=C/c1c[nH]c2ccccc12

screen / no.	21	22	23	24	25	26	27	28	29	30
HNF4A DNA FP	2.5	1.0	-2.8	2.6	-2.8	-3.5	0.9	2.2	nt	5.9
ALR H2O2 inh	-7.4	-1.9	1.0	-0.3	-47.9	-24.9	nt	-0.8	2.4	14.3
Ecoli growth	0.773	nt	0.71	0.724	0.671	0.647	nt	0.671	0.686	nt
FGF22 binding	nt	i	nt	i	i	i	i	nt	nt	i
rRNA inh HTS	nt	11.9	nt	7.0	-26.7	-1.2	-10.3	nt	nt	10.8
rRNA inh HTS OD600	nt	10.5	nt	12.4	-30.1	-7.1	1.8	nt	nt	6.4
UCH37 inh	6.7	nt	2.5	6.1	1.3	1.1	nt	4.4	0.9	nt
B2AR ag	4.3	-1.6	-27.9	-1.5	-1.1	-1.8	nt	2.8	nt	12.9
rRNA inh HTS RFP	nt	-0.3	nt	-3.3	-1.4	-1.3	-4.2	nt	nt	-0.1

Next section, starting with the last 2 of the part before.
29) CCn1c(=S)[nH]c2cc(C(=O)O)ccc21
30) Cc1ccccc1NC(=O)CCC(=O)N/N=C/c1c[nH]c2ccccc12
31) Cc1cc(C)n2ncc(/C(N)=N/OC(=O)Nc3ccccc3)c2n1
32) Cc1ccc(NC(=O)NCc2ccc3c(c2)OCO3)cc1C
33) COc1ccc(S(=O)(=O)N2CCn3c2nc2ccccc23)cc1
34) CN(C)CCNc1nc(-c2ccccc2CO)c2sccc2n1
35) O=C(OCC#CCSc1nnc(-c2ccc(Br)cc2)o1)c1ccco1
36) COc1ccc(NC(=O)c2cc(F)c(F)cc2Cl)cc1Cl
37) CC(=O)[C@H]1CC[C@H]2[C@@H]3CC=C4C[C@@H](OS(=O)(=O)O)CC[C@]4(C)[C@H]3CC[C@]12C
38) CCOc1ccc(C(=O)Nc2cc(Cl)ccc2-n2cncn2)cc1OC
39) Cc1ccc(CNC(=O)CSc2nnc3c(n2)[nH]c2ccc(F)cc23)cc1
40) CCN(CC)S(=O)(=O)c1ccc(C(=O)NCCOC(=O)c2ccc(F)cc2F)cc1

screen / no.	29	30	31	32	33	34	35	36	37	38	39	40
HNF4A DNA FP	nt	5.9	-0.7	0.1	4.0	2.5	0.3	-1.2	-2.2	3.0	-4.5	-4.0
ALR H2O2 inh	2.4	14.3	45.4	-2.4	-7.6	nt	-7.7	nt	nt	-4.8	-4.9	-5.1
Ecoli growth	0.686	nt	0.682	0.695	0.765	nt	0.683	0.644	nt	0.662	0.731	0.699
FGF22 binding	nt	i	i	i	nt	i	nt	i	i	i	i	i
rRNA inh HTS	nt	10.8	10.5	0.8	nt	17.8	nt	8.1	nt	9.3	3.4	-4.2
rRNA inh HTS OD600	nt	6.4	2.0	4.1	nt	24.4	nt	12.0	nt	-5.1	8.9	-11.9
UCH37 inh	0.9	nt	5.0	5.3	4.0	nt	2.1	4.3	nt	2.4	0.8	1.4
B2AR ag	nt	12.9	5.6	-9.1	-3.0	nt	-16.4	-5.9	-8.2	3.1	-4.8	0.8
rRNA inh HTS RFP	nt	-0.1	-2.2	0.7	nt	0.7	nt	7.0	nt	0.4	-1.6	3.7

41) CCOC(=O)C1(CC2CCCCO2)CCN(Cc2nc3ccccc3nc2C)CC1 (stereo unspecified)
42) CCN1CCN(Cc2ccc(NC(=O)c3ccc(C)c(NC(=O)C[C@@H]4NC(=O)[C@H](Cc5ccccc5)NC4=O)c3)cc2C(F)(F)F)CC1
43) O=c1[nH]c(SCc2ccc(OC(F)(F)F)cc2)nc2c1CCC2
44) N=c1c(-c2nc3ccccc3[nH]2)cc(C(=O)c2cccs2)nn1-c1ccccc1
45) O=C(N/N=C/c1ccccc1)c1cc(=O)[nH]c2ccccc12
46) COc1ccc([C@H]2C[C@@H](O)[C@H](n3cc(C4CC4)nn3)CN2C(=O)C2CCCCC2)cc1
47) CNC(=O)CSc1nnc(-c2ccco2)n1-c1cc(C)ccc1C
48) Cc1ccc(Nc2ccc(C(N)=O)cc2[N+](=O)[O-])cc1
49) COc1cccc(OCC(O)CN2CCN(CCO)CC2)c1 (stereo unspecified)

screen / no.	41	42	43	44	45	46	47	48	49
HNF4A DNA FP	1.0	2.4&0.8	2.5	2.1	1.0	1.3	-0.2	0.7	-1.1
ALR H2O2 inh	1.1	-16.0	nt	nt	25.5	nt	-5.2	-4.0	nt
Ecoli growth	0.718	nt	nt	0.688	nt	nt	0.701	0.67	0.698
FGF22 binding	i	i	i	nt	i	i	i	nt	nt
rRNA inh HTS	13.5	1.0&25.8	6.5	nt	9.7	7.1	7.0	nt	nt
rRNA inh HTS OD600	17.4	12.0&8.4	7.6	nt	2.9	4.0	0.3	nt	nt
UCH37 inh	-3.1	-0.6	nt	4.7	nt	nt	4.7	1.4	0.5
B2AR ag	4.9	1.2	nt	-1.3	-3.7	nt	-7.7	10.3	-1.7
rRNA inh HTS RFP	1.3	-1.8&3.8	1.1	nt	0.0	2.3	2.1	nt	nt

Among those listed so far, these contain an aryl methoxy group.
2) COC(=O)CN1C(=O)C(C)(C)Oc2ccc(C(=O)Nc3cccc(OC)c3)cc21
26) COCCCNc1nc2c(c(=O)n(Cc3ccc(OC)cc3)c(=O)n2C)n1C
33) COc1ccc(S(=O)(=O)N2CCn3c2nc2ccccc23)cc1
36) COc1ccc(NC(=O)c2cc(F)c(F)cc2Cl)cc1Cl
38) CCOc1ccc(C(=O)Nc2cc(Cl)ccc2-n2cncn2)cc1OC
46) COc1ccc([C@H]2C[C@@H](O)[C@H](n3cc(C4CC4)nn3)CN2C(=O)C2CCCCC2)cc1
49) COc1cccc(OCC(O)CN2CCN(CCO)CC2)c1 (stereo unspecified)

screen / no.	2	26	33	36	38	46	49
HNF4A DNA FP	-0.6	-3.5	4.0	-1.2	3.0	1.3	-1.1
ALR H2O2 inh	-4.0	-24.9	-7.6	nt	-4.8	nt	nt
Ecoli growth	0.677	0.647	0.765	0.644	0.662	nt	0.698
FGF22 binding	i	i	nt	i	i	i	nt
rRNA inh HTS	-3.7	-1.2	nt	8.1	9.3	7.1	nt
rRNA inh HTS OD600	-2.8	-7.1	nt	12.0	-5.1	4.0	nt
UCH37 inh	-0.1	1.1	4.0	4.3	2.4	nt	0.5
B2AR ag	4.1	-1.8	-3.0	-5.9	3.1	nt	-1.7
rRNA inh HTS RFP	1.9	-1.3	nt	7.0	0.4	2.3	nt
